Autofluor counter: counter-screen for toxin protease inhibitors: compound fluorescence; compound autofluorescence counterscreen, microsphere flow cytometry; active compounds read high; fluorescence intensity (no concentration beside the values); hit rate 3.1% among 360,000;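 active = at least 3 SD above the mean of all compounds, about 16000 in these data; inconclusive = too few beads counted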;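 note: 100 nL of 1 mM stock went into each well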
PrP 5UTR inh: inhibition of PrP 5' UTR reporter expression | cell-based PrP 5' UTR mRNA reporter, plate reader | inhibition, % (test concentration not listed) | hit rate 0.35% among 340,000 | AID 488862, 2010;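 active = every replicate at 50% or more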;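 note: 0 = median of the neutral control wells; tested in H4 reporter cells; numbers are from one replicate; inactives centre near -14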
RN4220 kill: growth inhibition of S. aureus RN4220, primary screen, OD600; inhibition, % (no concentration beside the values); 16 h; hit rate 0.33% among 330,000;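 active = z-score of -3 or lower and OD600 up to 0.18 on both plates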;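 note: plate controls were untreated cells for no effect and reference antibiotic for full effect; stock transfer was 100 nL into about 80 µL; one replicate is shown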
ugtP null kill: growth inhibition of ugtP-null S. aureus, primary screen, RN4220 ugtP deletion, OD600; 16 h; some inactives read as strong as hits; growth inhibition, % (concentration not given with the values); hit rate 0.54% among 330,000;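 active = z-score under -3 and OD600 up to 0.15 on both plates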;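 note: plate controls were untreated wells for no effect and antibiotic for full effect; wells of about 80 µL received 100 nL stock; the first replicate is given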
BJeLR lethal: MLPCN primary cell-based screen for lethality selective to Ras in HRASV12 cells | BJeLR (HRASV12) viability, CellTiter-Glo ATP luminescence, 48 h; reference of the scale not given here | inhibition, % (concentration not given with the values) | hit rate 0.17% among 300,000 | AID 1554, 2009;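 active = replicate mean above 50%; inconclusive = above 50% but judged a plate artefact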;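 note: 50 nL library stock added to about 25 µL; numbers are from one replicate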
Mtb hypoxia rep: PubChem AID 1159583 | M. tuberculosis hypoxia-regulated fluorescent reporter, fluorescence | fluorescence inhibition, % (test concentration not listed) | hit rate 0.1% among 300,000;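 active = 35 to 45% if threefold the growth effect, above 45% if 1.5-fold the growth effect; inactive = the rest, general growth blockers included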;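 note: wells of about 50 µL received 100 nL stock; 0% = vehicle wells and 100% = reference inhibitor wells; whole bacteria with a GFP reporter of the hypoxia response; strong numbers were not always called active; many hits fall short of the cut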
Mtb hypoxia rep growth: further read-out of Mtb hypoxia rep, marked with its call; growth inhibition, %; measured here: M. tuberculosis growth (absorbance);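 0% = vehicle and 100% = reference antibiotic; read after six days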
Active calls of the source: *; ? = inconclusive; · = no result given.

Start of the listing, in advance, 2 compounds:
Results follow in this order: Autofluor counter	PrP 5UTR inh	RN4220 kill	ugtP null kill	BJeLR lethal	Mtb hypoxia rep	Mtb hypoxia rep growth
CN(c1ccc(O)cc1)c1nc(-c2cccs2)cs1
    4064	-93	3.2	1	-11	-9	0
COc1ccc(NS(=O)(=O)c2cc(NC(=O)CCc3ccc(OC)c(OC)c3)ccc2N2CCOCC2)cc1
    4186	-14	1.7	9	·	13	9

The listing, from the start:
Results follow in this order: Autofluor counter	PrP 5UTR inh	RN4220 kill	ugtP null kill	BJeLR lethal	Mtb hypoxia rep	Mtb hypoxia rep growth
CN(c1ccc(O)cc1)c1nc(-c2cccs2)cs1
    4064	-93	3.2	1	-11	-9	0
COc1ccc(NS(=O)(=O)c2cc(NC(=O)CCc3ccc(OC)c(OC)c3)ccc2N2CCOCC2)cc1
    4186	-14	1.7	9	·	13	9
Cc1ccc(N(CC(=O)NC2CCCCC2)C(=O)CNC(=O)c2ccco2)cc1C
    6326	-17	3.9	8	-7	-5	3
O=C(c1cc([N+](=O)[O-])ccc1N1CCCCC1)N1CCc2ccccc21
    2304	-24	-1.9	34	2	11	2
O=C(Nc1ccc(Cl)c(C(F)(F)F)c1)N1CCCC(O)C1 (centres undefined)
    3215	-28	0.4	-9	0	-3	10
COc1ccc(C(=O)NC2CC2)cc1OC1CCN(C(C)CSC)CC1 (centres undefined)
    5701	-21	-2.3	-2	-4	-1	10
Cc1[nH]c2ccccc2c1C=NNC(=O)c1cc(-c2cccnc2)nc2ccccc12
    ·	-12	-1.1	-3	·	7	2
Cc1ccc(C2=Nc3ccccc3N=C(C(Cl)Cl)C2)cc1
    4637	9	0.5	0	6	13	7
Cc1ccc(-c2nc3ccccc3c(=O)n2-c2cc(C)ccn2)cc1
    10454	·	4.7	5	2	-9	1
CC(=O)c1cc(C#N)c(SCc2ccc([N+](=O)[O-])cc2)nc1C
    4055	-11	0.8	1	-10	0	1
Cc1ccc(NC(=O)c2ccc3[nH]c(=O)c(=O)[nH]c3c2)nc1
    5490	-23	3.8	6	4	11	-2
Cc1nn(CC(=O)N2CC(=O)Nc3ccccc32)c(C)c1[N+](=O)[O-]
    4312	-30	4.7	8	2	12	11
COc1cc(OC)c(C2SCCN2S(=O)(=O)c2ccc(F)cc2)cc1OC (centres undefined)
    4316	-6	5.2	10	-5	·	·
Cc1nn(-c2cc(N3CCCCCC3)ccc2[N+](=O)[O-])c(=O)c2ccccc12
    23118*	5	1.3	-4	-9	8	8
COc1ccc(-n2cc(-c3ccccc3)[n+]3c2CCCCC3)cc1
    4648	-23	2.4	2	14	14	9
O=C(NCc1ccc2c(c1)OCO2)c1ccco1
    4800	2	1.1	4	-5	·	·
CCc1ccc(-n2c(=O)c3c(C)c(C(=O)N(C)C)sc3n(CC(=O)NCc3ccco3)c2=O)cc1
    10960	-10	3.1	-3	6	-7	-1
O=C(O)c1ccc(N=Cc2nc(-c3ccco3)oc2O)cc1
    3410	-24	9.2	-7	2	10	12
COc1ccc(NC(=O)CN2CCN(C(=O)N3CCOCC3)CC2)cc1
    3033	-9	7.4	11	-8	7	3
Cc1ccc([N+](=O)[O-])cc1S(=O)(=O)Nc1cccc(-c2ccc(N3CCOCC3)nn2)c1
    5097	-34	4.5	-10	1	8	1

Results follow in this order: Autofluor counter	PrP 5UTR inh	RN4220 kill	ugtP null kill	BJeLR lethal	Mtb hypoxia rep	Mtb hypoxia rep growth
CCn1c(SCC(=O)Nc2sc3c(c2C#N)CCCC3)nnc1-c1ccco1
    4597	-12	4.0	-3	-12	·	·
O=C1CC(c2ccco2)CC(O)=C1C=Nc1cc(Cl)cc(Cl)c1 (centres undefined)
    2703	-11	0.4	-2	-4	·	·
COc1cc(OC)c(OC)cc1CNCCc1cccc(F)c1
    3589	-15	4.1	7	-1	-6	2
CC(C)C1CC(c2ccccc2)(C(CN)CO)CCO1 (centres undefined)
    4312	-8	5.2	-3	7	9	4
COc1ccc(-c2nnc(SCc3c(C)noc3C)n2N)cc1OC
    19531*	-24	0.7	2	-11	8	6
CCc1cc2cccc(C)c2nc1SCC(=O)Nc1cc(C)on1
    4280	-60	3.6	33	0	2	-3
COC(=O)[C@@]12CCCN1[C@H](c1ccc(-c3ccc(OC)cc3)c(OC)c1)[C@H]1C(=O)N(C)C(=O)[C@H]12
    3551	-8	·	·	-3	·	·
Cc1cc(C)cc(C(=O)NCC(=O)OCC(=O)N2c3ccccc3NC(=O)C2(C)C)c1
    2250	-23	-0.2	-4	-1	7	12
CCOc1ccc(N(C)S(=O)(=O)c2ccc3[nH]cc(C(=O)NCCOC)c(=O)c3c2)cc1
    3855	-21	5.2	7	12	4	14
CC(C)CSC1=NSC2=NC(=O)/C(=C\c3cccs3)C(=N)N12
    2071	-45	41	4	-13	10	5
Cc1ccc(C(=O)N2CCC3(CC2)Oc2ccc(Cl)cc2C(=O)C32CC(c3ccc(Cl)cc3)=NO2)s1 (centres undefined)
    3852	-22	6.3	3	0	6	3
Cc1ccc(O)c(NC(=O)C2CCCCC2)c1
    5998	-13	2.5	-3	3	-6	6
O=C(Oc1c(Br)cc([N+](=O)[O-])cc1Br)c1cccnc1
    2049	-10	70	54	4	-2	5
COc1cc(/C=N/NS(=O)(=O)c2ccc(C(C)(C)C)cc2)cc([N+](=O)[O-])c1O
    4056	-33	·	·	5	·	·
CCOC(=O)c1c(NC2=NS(=O)(=O)c3ccccc32)sc2c1CCC(C)C2 (centres undefined)
    2426	-22	·	·	2	·	·
CCn1c(C(C)NC(=O)c2ccc(Cl)cc2)n[nH]c1=S (centres undefined)
    4150	-33	15	6	7	12	8
Fc1ccc(C=NNc2ncnc3nc[nH]c23)cc1F
    ·	·	1.8	3	·	4	8
O=C(C1=C[C@@H](C2CCCCC2)C[C@@H](OCc2ccc(CO)cc2)O1)N1CCN(Cc2ccc3c(c2)OCO3)CC1
    3756	-5	·	·	4	·	·
CCOc1cccc(/C=N/N2C(C)CCCC2C)c1O (centres undefined)
    3681	4	·	·	8	·	·
CCOCCCNC(=S)N1CCC(C(=O)c2ccc(C)cc2)CC1
    3442	-7	-5.4	1	-5	-5	1

Results follow in this order: Autofluor counter	PrP 5UTR inh	RN4220 kill	ugtP null kill	BJeLR lethal	Mtb hypoxia rep	Mtb hypoxia rep growth
CCOc1ccc(CCNC(=O)CS(=O)(=O)Cc2nc(-c3ccc(OC)cc3)oc2C)cc1
    4609	-5	-3.4	-3	7	-5	-1
CCC(c1nnnn1CCc1ccccc1)N1CCN(c2ccc(OC)cc2)CC1 (centres undefined)
    4546	-7	17	0	-1	·	·
COc1ccc(C(C(=O)NC(C)(C)C)N(C(=O)CCC(=O)Nc2cc(C)on2)c2ccccc2F)cc1 (centres undefined)
    6053	-8	2.3	1	-1	-9	7
CCOc1ncccc1C(=O)Nc1cc(S(=O)(=O)N(CC)CC)ccc1N1CCOCC1
    ·	4	8.1	-7	·	-7	-2
CCS(=O)(=O)n1nc(-c2ccccc2)nc1NCc1ccco1
    ?	-11	-0.7	1	-5	-3	3
CCCCn1nnnc1SCC(=O)c1cc(Cl)ccc1OC
    2698	-1	8.9	4	-7	6	8
O=C(Nc1cccnc1)c1cccnc1Cl
    8710	-16	6.0	-4	-4	13	7
CCCCc1cn(CC2CCC(C3CCC(Cn4cc(CCCC)nn4)O3)O2)nn1 (centres undefined)
    ·	·	-1.0	-3	·	-6	9
COc1ccc(-n2c(-c3ccccc3Br)nc3ccccc3c2=O)cc1
    4034	-44	-1.5	14	-15	6	1
O=C(N/N=C/c1ccc(O)cc1)Nc1cccc2nsnc12
    4432	-19	·	·	-4	·	·
NC(=S)N=Nc1c(O)n(Cc2ccc(F)cc2)c2ccccc12
    2103	-5	4.9	1	6	-3	-4
CSc1ccccc1NC(=O)COc1nsnc1N1CCOCC1
    4615	-5	5.9	7	-6	8	-1
Cc1ccc2nc3n(c(=O)c2c1)CCCCC3
    4174	-24	3.9	1	-2	·	·
Cc1cc2oc(=O)cc(-c3ccccc3)c2c(C)c1-c1ccc(C(F)(F)F)cc1
    3064	-5	5.3	39	·	5	8
O=C(CCc1ccccc1)c1nnc(-c2ccccc2)o1
    4413	-16	7.2	13	-5	7	-2
Cc1ccc(-n2nc3ccc(NC(=O)/C=C/c4ccco4)cc3n2)cc1
    9148	-47	-11	-13	7	1	9
Cc1cc(C)n2nnnc2n1
    3793	-10	2.9	-1	-3	15	0
O=C(O)C(Cc1c[nH]c2ccccc12)N1C(=O)c2ccccc2C1=O (centres undefined)
    3274	-9	3.6	5	-7	-11	-5
CN(Cc1c(C(=O)N/N=C/c2ccccc2)nnn1-c1nonc1N)c1ccccc1
    5472	-24	·	·	3	·	·
CC(C)CCn1c(=O)c(C(=O)NCc2ccco2)c(O)c2ccccc21
    3501	-8	-6.5	0	4	-9	2

Results follow in this order: Autofluor counter	PrP 5UTR inh	RN4220 kill	ugtP null kill	BJeLR lethal	Mtb hypoxia rep	Mtb hypoxia rep growth
COc1ccc(Cl)cc1N(C(C)=O)c1nc(C)cc(C)c1C#N
    3708	-13	6.7	-2	3	7	3
O=c1[nH]nnc2c1sc1nc(N3CCOCC3)c3c(c12)CCCC3
    4944	-12	-1.8	3	-9	16	6
Cc1ccc(NC(=O)C2CCN(S(=O)(=O)c3cc([N+](=O)[O-])ccc3Cl)CC2)nc1
    ·	-20	5.2	6	·	·	·
CCCCc1nc2ccccc2[nH]1
    4615	-7	5.8	15	-1	13	8
CCCCNC(=O)c1cc2c(=O)n3cccc(C)c3nc2s1
    3210	-12	1.2	5	-12	3	3
O=C1CCCN2N=C(SCC(=O)Nc3ccc(Br)cc3)SC2=N1
    5209	-12	·	·	2	·	·
COC(=O)/C=C/c1ccc(-n2ccnc2)cc1
    2098	-4	4.1	-4	0	15	2
Cc1cc(C)nc(NN2C(=O)/C(=C/c3ccccc3)SC2=S)n1
    11126	-22	1.0	-11	-1	1	13
O=C1CCN(Cc2ccc(O)cc2)CCN1C(CO)c1ccccc1 (centres undefined)
    ·	·	4.1	1	·	-1	-2
CCS(=O)(=O)c1ccc(O)c(NC(=O)Nc2cccc3ccccc23)c1
    3349	-20	2.1	-9	-5	13	0
CCOc1ccc(NC(=O)C/C(C)=N/NC(=O)COc2ccc(Br)cc2C)cc1
    3683	-29	·	·	-4	·	·
CSc1ncccc1C(=O)OCC(=O)N1CC2(C)CC1CC(C)(C)C2 (centres undefined)
    3366	-28	2.4	-6	·	7	11
CN(CCO)c1nc(N)c(C#N)c(CC#N)c1C#N
    5050	-10	3.4	-9	12	5	-4
O=C(/C=C/c1ccc([N+](=O)[O-])cc1)NCc1ccco1
    2555	-34	0.1	6	-8	7	1
COc1ccc(-c2nc(-c3ccc(C(=O)O)cc3)no2)cc1
    3908	-68	12	-6	-5	12	6
Cn1cnnc1SCC(=O)Nc1ccccc1F
    4269	-10	3.1	3	-2	-8	-4
Cc1cc(C(F)F)n2nc(C(=O)Nc3ccc(S(=O)(=O)N4CCCCCC4)cc3)nc2n1
    6010	-24	-5.8	6	-8	·	·
COC(=O)[C@]1(Cc2ccccc2)N[C@H](CN(C)C(=O)Nc2ccc(F)cc2)[C@@H]2C(=O)N(C)C(=O)[C@@H]21
    3002	-11	4.8	9	·	-6	5
CN1C(=S)SC(/[N+]([O-])=C/c2cccnc2)C1(C)C (centres undefined)
    3087	-16	9.6	2	4	16	11
Cc1cc(C)c2ccc(N)nc2c1O
    2864	30	25	13	10	2	-3

Results follow in this order: Autofluor counter	PrP 5UTR inh	RN4220 kill	ugtP null kill	BJeLR lethal	Mtb hypoxia rep	Mtb hypoxia rep growth
S=c1[nH]nc(Cn2c(-c3ccccn3)nc3ccccc32)n1-c1ccc2c(c1)OCCO2
    3917	-39	4.3	7	3	5	2
CN1CCN(c2ccc(S(=O)(=O)N3CCCCC3)cc2[N+](=O)[O-])CC1
    4190	-1	1.5	2	5	3	9
Cn1ncc2c(ON=C(N)c3ccc(C(C)(C)C)cc3)ncnc21
    ·	·	7.5	4	·	20	5
O=C(N/N=C/c1ccc2c(c1)OCO2)c1ccccn1
    9549	-41	·	·	29	·	·
COc1cc(C(=O)Nc2ccc(N(C)C)cc2)c([N+](=O)[O-])cc1OC
    2134	-59	-0.6	-5	-2	0	2
Cc1cc2nc(-c3ccc(SCC(=O)Nc4ccc(S(=O)(=O)NC5CC5)cc4)nc3)[nH]c2cc1C
    2482	-107	32	19	6	-1	2
CC(C)Oc1ccc2ccccc2c1C=O
    2596	-11	9.3	-3	4	·	·
COc1ccccc1CNC(=O)CN1C(=O)NC(C)(c2ccc(C(C)(C)C)cc2)C1=O (centres undefined)
    3517	-11	-1.6	12	2	12	2
CNC(=O)c1ccccc1F
    3241	-8	8.2	10	4	·	·

Source: PubChem
